LANA-nucl inh – inhibitors of KSHV LANA-nucleosome binding, primary screen, biochemical, fluorescence polarization, FITC-LANA1-23, chicken nucleosomes | FITC-LANA1-23 / chicken nucleosome fluorescence polarization; hits give low values | z-score (no concentration beside the values) | 51,000 tested, 0.3% active | AID 720717, 2013;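 active = both repeat wells score below -2 in polarization z-score versus plate sample wells, excluding overly bright wells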;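 also: 100 nL library stock added to about 30 µL; numbers are from one replicate; some results filed as inactive read as strong as hits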
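Assay system: FITC-LANA peptide and chicken nucleosomes; input: 240 nM purified chicken nucleosomes (480 nM peptide binding sites), final; also added: 50 nM FITC-LANA1-23 probe; medium: TEN-BT buffer, pH 7.5; doses: pin-transferred compound, 100 nL; times: 10–45 min, room temperature; technique: fluorescence polarization; replication: duplicates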
BasE inh – BasE siderophore enzyme inhibitors, primary screen, biochemical, Acinetobacter baumannii ATCC 17978, fluorescence polarization. 84,000 tested, 0.1% active. inhibition, % (test concentration not listed). purified BasE, fluorescence polarization binding displacement;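 active = both replicates above 25% with normal brightness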;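 also: 0% = negative plate control signal and 100% = positive plate control signal; stock transfer was 100 nL into about 30 µL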
Starred values were filed as active, the others as inactive; . = not tested or not shown; & = joins results of further samples. The list is partial. The share of hits here may be higher or lower than overall.

Values run as follows: LANA-nucl inh	BasE inh
Cc1ccc(S(=O)(=O)N2C=Cc3ccccc3C2c2c[nH]c3ccccc23)c(C)c1 (stereo not given)
→ .	-0.3
CCCC(c1nnnn1CC1CCCO1)N(Cc1cccs1)Cc1cc2ccc(C)c(C)c2[nH]c1=O (stereo not given)
→ 0.032	0.6
O=C(CO/N=C/c1ccccc1Cl)N1CCCCCC1
→ .	-2.0
CCNC(=O)c1ccc(CN2CCOCC2)cc1
→ -0.42	0.3
N#Cc1cccc(NC(=O)COC(=O)CCc2ccc(S(=O)(=O)N3CCOCC3)cc2)c1
→ .	-0.3
Cc1[nH]c2ccccc2c1SCC(=O)Nc1nccs1
→ 2.6	-1.2
CCOc1ccc(-c2nnc(Nc3ccc(OC)cc3)c3ccccc23)cc1
→ .	0.9
COc1cccc(CNS(=O)(=O)c2cc(OC)ccc2OC)c1
→ .	-1.3
Cn1nc(-c2ccccc2)cc1NS(=O)(=O)c1ccc(C#N)cc1
→ 0.023	-0.2
CN(C)C1(CNCc2nc3ccccc3c(=O)[nH]2)CCCCC1
→ .	1.7
Cc1nnc(SCC(=O)NC(=O)c2cccn2C)n1Cc1ccccc1
→ .	1.7
CC(CCc1ccco1)NC(=O)Cn1ncc2c(Cl)cccc21 (stereo not given)
→ 1.6	-1.7
O=C1c2ccccc2-c2c1cccc2C(=O)N(CCO)CCO
→ 2.3	-4.2
Cn1cccc1C(=O)c1cccc(Br)c1
→ 0.44	-1.9
CC1=CC=CC(=C(C2C(=O)N(C)C(=O)N(C)C2=O)C2C(=O)N(C)C(=O)N(C)C2=O)C1=O
→ -0.032	-0.8
COc1ccc(OCC(O)CNC(=O)Nc2ccc(OC(F)(F)F)cc2)cc1 (stereo not given)
→ 0.28	1.8
CC(=O)N(CCC(c1ccc(C)cc1)c1ccco1)Cc1cccs1 (stereo not given)
→ -0.76	0.1
COc1cc(/C=N/NC(N)=S)ccc1OC(=O)c1ccco1
→ .	0.6
Cc1nnc(C)c2c(C)n(C(C)c3ccccc3)c(C)c12 (stereo not given)
→ -0.51	-1.0
CCOC(=O)c1cc(C(N)=O)c(SC)[nH]c1=O
→ .	1.1
COc1cc(-c2cc(C(=O)NN=C3CCN(C(C)=O)CC3)c3ccccc3n2)cc(OC)c1OC
→ .	-1.3
CCCCC(=O)NCc1ccccc1Cl
→ 0.042	-1.2
NC1=NC(=O)C(Cc2cccc(Cl)c2)S1 (stereo not given)
→ .	-1.1
CC(=O)Nc1ccc(N/C(C)=C/C(=O)c2cccnc2)cc1
→ -0.39	39*
CCN(CC)c1nc(N2CCN(CCO)CC2)nc2ccccc12
→ -0.11	0.5
NC(=O)c1ccc(-c2ccc(/C=C3\C(=O)ON=C3c3ccccc3)o2)cc1
→ -0.1	1.7
COc1cccc(C(=O)O/N=C(\N)Cc2ccc(OC)c(OC)c2)c1
→ -0.17	-0.2
CC(OC(=O)c1ccccc1NC(=O)c1ccco1)C(=O)N1CCN(C(=O)c2ccco2)CC1 (stereo not given)
→ .	1.7
N#CCC(=O)Nc1ccc(S(N)(=O)=O)cc1
→ .	3.7
CSC1=C(C#N)C(=O)NC(c2c(Cl)cccc2Cl)S1 (stereo not given)
→ 0.025	0.5
CCS(=O)(=O)Nc1ccc(C(=O)Nc2ccc3c(c2)OCCO3)cc1
→ -0.0065	-0.8
Cc1c(C(=O)CSc2n[nH]c(=O)n2C2CC2)sc2ccc(Cl)cc12
→ .	3.1
Brc1ccc(-c2ccc3ccccc3n2)cc1
→ -1.1	.
CC1CCCC(C)N1C(=O)CN1CCC(O)(c2ccccc2)CC1 (stereo not given)
→ -0.74	-0.5
Cc1cc(N2CCOCC2)nc2ccc(N)cc12
→ -0.49	1.4
C=CCOC1(c2ccccc2)OC(=O)c2ccccc21 (stereo not given)
→ 0.24	1.1
CCN1C(=O)/C(=C2/C=Cc3ccccc3N2CC)SC1=S
→ .	2.1
O=C(CSc1nc2ccccc2[nH]1)Nc1ccc(C(=O)O)cc1
→ 0.31	1.3
CCc1ccc(NC(=O)C2CCCN(C(=O)c3cnn(-c4ccccc4)c3-n3cccc3)C2)cc1 (stereo not given)
→ -1.1	-0.9
CCCCc1c(O)nc(SCCN(C)C)n(-c2ccccc2)c1=O
→ .	3.4
O=S(=O)(c1ccc(Sc2ccc(S(=O)(=O)N3CCCC3)cc2)cc1)N1CCCC1
→ 0.56	0.9
Cc1cc(CNC(=S)Nc2ccc(F)cc2F)nn1C
→ -0.62	-1.7
O=C1CC(Cc2ccccc2)C(=O)N1Cc1ccc2c(c1)OCO2 (stereo not given)
→ 0.76	-1.8
Cc1ccc2nc3ccc(N4CCCCCCC4)nn3c(=O)c2c1
→ 0.36	-0.3
COCCNC(=O)C1=CC(c2ccc(C)cc2)=NS(=O)(=O)N1C
→ -0.062	2.6
CC(C)CNC(=O)c1cccc2ccccc12
→ 0.31	1.9
Cc1ccc(-n2c(SCC(=O)c3ccc(C#N)cc3)nc3ccccc32)cc1
→ .	-0.9
CCOC(=O)C1CCCN(C(=O)CC)C1 (stereo not given)
→ 1.2	-2.9
COc1ccccc1N/C=C(\C#N)c1nc2ccccc2[nH]1
→ 0.32	-1.4
Oc1ccc(C2SCCS2)cc1
→ .	53*
COc1ccc(NC(=O)CCCc2nnc3n(C(C)C)c(=O)c4sccc4n23)cc1OC
→ 1.3	0.3
COc1ccc(NC(=C(C#N)C#N)C(F)(F)C(F)(F)F)cc1
→ .	1.4
Nc1nc(-c2ccccc2)cc(-c2ccccc2)n1
→ 1.7	0.4
COc1ccc(Cc2c(O)nc(N)[nH]c2=O)cc1
→ .	1.9
Cc1cc(C)c(S(=O)(=O)NCC(=O)NC2CC2)c(C)c1
→ -1.4	1.1
CC(=O)Nc1ccc(C(=O)CSc2nnc3scc(-c4ccccc4)n23)cc1
→ -1	3.0
COCCNC(=O)C1CCCN(S(=O)(=O)c2ccc(OC)c(OC)c2)C1 (stereo not given)
→ 0.82	-2.2
Cc1cc(C)c(C(=O)Nc2cccc3c(=O)[nH][nH]c(=O)c23)c(C)c1
→ .	5.0
Cc1oc2cc3oc(=O)c(CC(=O)NCCc4ccccc4)c(C)c3cc2c1C
→ 0.75	0.5
Cc1[nH]c2ccc(C(=O)NC3CC3)cc2c1C
→ -0.23	0.4

New compounds follow.
Values run as follows: LANA-nucl inh	BasE inh
Nc1c(C(=O)Nc2ccc3ccccc3c2)sc2nc3c(cc12)CCC3
→ .	0.3
O=C(CNS(=O)(=O)c1cccs1)NC1CCCc2ccccc21 (stereo not given)
→ 1	-5.2
CC1=C(c2cccc(Cl)c2)S(=O)(=O)NC1=O
→ -1.2	0.9
COc1ccc(CCNC(=O)Cn2nnc(C(=O)Nc3cccc(C)c3C)c2N)cc1OC
→ -0.55	3.5
CC(=O)OC1=CC=CNC1=C(C#N)C#N
→ 0.48	3.2
Cc1cc(NC(=O)COC(=O)c2cc(-c3ccco3)nc3ccccc23)n(-c2ccccc2)n1
→ .	0.7
Nc1cccnc1Nc1ccccc1
→ -3.1*	24
COc1cc(NC(=S)N(C)CCC#N)c(OC)cc1Cl
→ 3.1	-2.1
CC(N)CCc1ccco1 (stereo not given)
→ 0.41	0.0
CC1CN(C2=NCCN2S(=O)(=O)c2ccc(Cl)cc2)CC(C)O1 (stereo not given)
→ .	1.1
O=C(CSc1ncccn1)NC(=O)NCc1ccccc1
→ .	4.0
O=C(COC(=O)C1CCCCC1)Nc1ccc2c(c1)OCCO2
→ .	4.0
CCOC(=O)/C(C#N)=C/Nc1cc(C)no1
→ -0.25	2.5
CC1CCCC(C)N1Cc1c(O)ccc2c(-c3ccccc3)cc(=O)oc12 (stereo not given)
→ -0.42	1.3
Cc1oc(-c2ccc(Cl)cc2)cc1C(=O)O/N=C(\N)Cc1nc2cccnc2n1C1CC1
→ 0.59	-0.4
C=CCNC(=O)CSc1nc(=O)n2cc(C)ccc2n1
→ -0.92	3.1
COc1ccc(-c2ccc(C#N)c(Cl)n2)cc1
→ -1.7	.
Oc1c(C(c2ccco2)N2CCOCC2)sc2ncnn12 (stereo not given)
→ 0.21	-2.1
Nc1c2c(=O)[nH]c(O)cc2nn1-c1ccccc1
→ .	0.4
COc1ccc(CNC(=O)c2cnc(OC)cc2C(F)(F)F)c(OC)c1
→ -0.63	-0.2
COc1ccc(-c2nc3ccccc3o2)cc1
→ -1.2	1.1
COC(=O)C1=Cc2cc(OC)ccc2OC1
→ -0.79	.
COC(=O)CC1C(=O)NCCN1C(=O)CSc1nnc(Nc2ccc(OC)cc2)s1 (stereo not given)
→ .	0.1
CCCCCCCCCCCCCCCC(=O)N[C@@H](COP(=O)(O)O)C(=O)O
→ 0.16	-2.9
CCN1C(=O)NC(c2ccc(Cl)cc2)C(C(=O)OC)=C1C (stereo not given)
→ -0.29	1.1
N#Cc1c(NC(=O)CCn2cnc3ccccc3c2=O)oc(-c2ccccc2)c1-c1ccccc1
→ 0.42	-0.8
Cc1ccc(NC(=O)CN(C)C(=O)CSc2nc3ccccc3c(=O)n2CCO)cc1
→ .	-0.1
O=c1oc2c(-c3cc(C(F)(F)F)ccc3Cl)cc(O)cc2s1
→ .	2.5
CSc1ccccc1NC(=O)c1ccccc1
→ .	0.5
CS/C(N)=N\N=C(/C)c1cc2ccccc2o1
→ -0.016	2.2
CC1(C)CC2(CC(C)(C)NC(=O)N2)NC(=O)N1
→ -1.1	1.5
Cc1ccsc1/C=N/c1sc2c(c1C#N)CCCC2
→ -0.76	-0.8
N#Cc1cc2c(nc1S(=O)(=O)Cc1ccccc1)CCCC2
→ -1.4	-3.8
COC(=O)C1=C(N)c2c(F)cccc2C1(C#N)c1ccccc1 (stereo not given)
→ -0.24	.
O=C(C1CC2C=CC1C2)N1CCCc2ccccc21 (stereo not given)
→ .	8.6
Cc1cccc(NC(=O)C(Cc2ccccc2)N2Cc3ccccc3C2=O)n1 (stereo not given)
→ 0.5	-0.3
CNCC(=O)N1CCCC1
→ .	-0.1
CSc1ccc(C(=O)Nc2sccc2C#N)cc1
→ -0.13	-0.7
O=C1/C(=C/c2ccc(Cl)cc2)SC(=Nc2ccccc2)N1N1CCOCC1
→ .	0.8
O=C(CN1C(=O)C2CC=CCC2C1=O)NCc1ccccc1F (stereo not given)
→ .	-2.6
CCOC(=O)C1=C[C@@H](OC(CC)CC)[C@H](NC(C)=O)[C@@H](N)C1
→ -0.033&-0.023	-0.8
COc1ccc(-c2cc(O)c3c(C)oc(C)c3c(=O)c2)cc1
→ .	1.8
Cc1noc(C)c1CSc1ccc(S(=O)(=O)N(C)C)cn1
→ .	3.7
O=C(Nc1cccc(F)c1)c1ccccn1
→ .	-0.5
Fc1ccc(CSc2nncn2NCc2ccc3c(c2)OCO3)cc1
→ -0.33	-2.3
CC(C)(C)C(=O)Nc1oc(-c2ccccc2)c(-c2ccccc2)c1C#N
→ .	0.2
COc1cccc(NC(=O)CSc2nnnn2C(C)C)c1
→ 1.8	-2.4
O=C(N/N=C/c1ccncc1)c1ccc(Cn2nnc(-c3ccccc3)n2)cc1
→ .	-3.3
Cc1occc1-c1nnc(SCc2ccc(C(C)(C)C)cc2)n1N
→ .	0.8
O=C(/C=C1\Sc2ccccc2NC1=O)NCc1ccc2c(c1)OCO2
→ 0.82	-4.0
COc1ccc2cc(OC)ccc2c1
→ -0.53	1.4
c1cnn(-c2cncc(-n3cccn3)n2)c1
→ -1.5	.
CC1CN(Cc2nnc(-c3ccccc3)o2)CC(C)O1 (stereo not given)
→ 1.2	-4.3
CCSc1nc2ccccc2c(=O)n1CCOC
→ -0.55	-1.4
CCC(=O)c1ccc2cc(OC)ccc2c1
→ .	0.3
Cc1ccc(C)c(OC(=O)NC(C)(C(F)(F)F)C(F)(F)F)c1C
→ .	1.4
CCOc1ccc2nc(NCCNC(=O)COc3ccccc3)c(C#N)cc2c1
→ -0.48	-1.6
CC(=O)N[N+]1=C(N)c2ccccc2C1
→ .	3.2
COc1ccc(-c2noc(CCC(=O)NC3CCN(Cc4ccccc4)CC3)n2)cc1
→ 0.044	-0.3
O=C1CC(c2ccsc2)c2c(n[nH]c2-c2ccccc2)N1 (stereo not given)
→ -0.14	1.5

The list goes on.
Values run as follows: LANA-nucl inh	BasE inh
O=C(COc1cccc2ccccc12)N1CCN(c2ccccn2)CC1
→ -0.064	1.0
Cc1ccc(F)cc1S(=O)(=O)NC1CCCCNC1=O (stereo not given)
→ -0.057	4.3
COc1cc(CO)ccc1OCc1ccc(C(=O)O)cc1
→ -0.27	2.4
Cc1nn(CC(C)C)c(Cl)c1/C=C/C(=O)O
→ .	2.8

Compound activity deposited in PubChem by ICCB-Longwood Screening Facility, Harvard Medical School.
